GALR2 ag: activates the human galanin receptor 2; GALR2-expressing cells, agonist activation read-out; activation, %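 (tested at 5 µM)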; hit rate 0.48% among 140,000; AID 803;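 active = above mean plus 3 SD of all compounds, about 5% in these data, not always enough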;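 note: 0% = vehicle buffer wells and 100% = reference agonist at full effect; tested in CHO reporter cells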
Target sequence (O43603 whole entry, looked up): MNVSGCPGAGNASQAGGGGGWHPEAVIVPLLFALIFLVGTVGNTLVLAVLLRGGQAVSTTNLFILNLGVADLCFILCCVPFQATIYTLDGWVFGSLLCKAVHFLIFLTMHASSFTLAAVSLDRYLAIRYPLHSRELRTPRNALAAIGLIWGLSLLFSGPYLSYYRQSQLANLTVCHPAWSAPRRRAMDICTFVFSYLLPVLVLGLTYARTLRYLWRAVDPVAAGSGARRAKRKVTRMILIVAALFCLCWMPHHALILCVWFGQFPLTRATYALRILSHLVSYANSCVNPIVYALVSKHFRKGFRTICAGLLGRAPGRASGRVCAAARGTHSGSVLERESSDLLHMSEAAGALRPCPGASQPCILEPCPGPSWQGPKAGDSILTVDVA
RGS16-Gao: regulators of human RGS16-Galphao interaction. O15492+P09471. bead-based flow cytometry RGS16-Galphao binding, fluorescence; actives lie on both sides. binding response (% of control), % at 10 µM. hit rate 0.38% among 220,000. AID 1441;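 active = below 25% or above 175%, edge rows of some plates excepted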;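 note: Galphao activated by GDP with aluminum fluoride before binding; 100% = wells without compound and 0% = beads without RGS; some results beyond the cut were filed as inactive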
Target sequence (O15492 whole entry, looked up): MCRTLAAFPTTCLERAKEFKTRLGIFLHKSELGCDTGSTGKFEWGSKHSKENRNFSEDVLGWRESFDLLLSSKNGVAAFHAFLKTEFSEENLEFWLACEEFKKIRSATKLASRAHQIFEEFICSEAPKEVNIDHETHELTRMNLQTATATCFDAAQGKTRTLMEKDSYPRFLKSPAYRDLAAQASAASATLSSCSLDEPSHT
Target sequence (P09471 whole entry, looked up): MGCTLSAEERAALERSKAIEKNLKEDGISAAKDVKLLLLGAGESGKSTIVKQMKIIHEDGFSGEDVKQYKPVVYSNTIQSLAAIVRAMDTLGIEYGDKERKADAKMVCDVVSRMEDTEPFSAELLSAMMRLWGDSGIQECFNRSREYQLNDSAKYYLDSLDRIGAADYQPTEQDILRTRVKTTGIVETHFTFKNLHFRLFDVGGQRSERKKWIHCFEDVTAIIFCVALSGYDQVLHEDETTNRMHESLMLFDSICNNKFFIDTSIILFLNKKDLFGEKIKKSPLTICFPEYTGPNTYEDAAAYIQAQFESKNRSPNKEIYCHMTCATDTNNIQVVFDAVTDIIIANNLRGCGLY
Insulin prom inh: TRM-6 insulin promoter activity inhibition; hit rate 0.9% among 130,000; inhibition, % at 2 µM; TRM-6 cells (human fetal islet line), insulin promoter-eGFP reporter, imaging; reporter expression induced with tamoxifen;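 active = inhibition above the mean plus 3 SD, with well images judged a real hit on visual review, cut at about 60% in these data, passing the limit was not always enough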
PKD1 inh: blocks activity of human protein kinase D1. AID 797. PKD1 kinase fluorescence polarization assay. inhibition, %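 (about 10 µM by stock and volumes)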. Q15139. hit rate 0.056% among 200,000;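 active = inhibition of 50% or more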;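 note: controls were vehicle for no effect and a reference inhibitor for full effect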
HSV augment: increases HSV replication in cells; HSV replication augmentation in cells, fold increase; maximum fold increase; hit rate 0.005% among 220,000; AID 1956;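 active = peak rise of 1.5-fold or more in the series; tested in PC3 cells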;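 note: first round at 10 µM; read as green reporter fluorescence; hits show the peak of a series up to 25 µM; 1 = signal of infected wells without compound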
Insulin prom inh cell count: recorded beside Insulin prom inh, whose call it bears; normalized cell count, %; measured here: cell count, toxicity; reference of the scale not given here;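 cells exposed to compound for 48 h; stained nuclei by imaging scaled within each plate; lower means fewer cells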
HSV augment primary fold: also measured in HSV augment; calls as there; fold increase; compound at 10 µM; measured here: primary screen fold increase 10 uM; tested in PC3 cells;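 GFP signal in the first replicate; 1 = infected wells without compound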
* = called active by the depositor; i = inactive; . = no result given.

SMILES	GALR2 ag	RGS16-Gao	Insulin prom inh	Insulin prom inh cell count	PKD1 inh	HSV augment	HSV augment primary fold
COc1ccc(C(=O)Nc2ccccc2C(=O)N/N=C/c2ccncc2)cc1OC	.	99	.	.	.	i	0.74
CCN1C(=O)S/C(=C/c2ccc(Sc3nc4ccccc4[nH]3)o2)C1=O	1.2	97	.	.	-8	i	1.3
CNc1c(N)c(=O)oc2ccccc12	.	100	.	.	2	i	0.93
COCCN(C(=O)c1ccccc1OC)c1nnc(C)s1	.	99	.	.	1	i	0.96
O=C(CN(c1ccc(F)cc1)S(=O)(=O)c1ccc2c(c1)OCCO2)N1CCOCC1	-0.9	102	14	76	-4	i	0.93
COc1ccc(NCc2nnc(SCc3ccc(Cl)cc3)n2-c2ccccc2)cc1	-1.9	78	-38	81	2	i	0.64
O=C(COC(=O)Cc1c[nH]c2ccccc12)Nc1ccccc1	-2.5	101	31	99	-1	i	0.85
O=C(CSc1nc2c(c(=O)[nH]1)CCC2)Nc1cccc(Cl)c1	0.2	102	.	.	-14	i	0.84
Fc1ccc(/C=N/NC(=S)Nc2ccc(Cl)cc2)cc1F	0.4	103	.	.	-3	i	1.1
Cc1nc(-c2ccc(NC(=O)c3cccs3)cc2)cs1	-0.2	101	.	.	-1	i	0.86
Cn1cccc1CC(=O)N/N=C/c1ccc([N+](=O)[O-])cc1	.	100	.	.	.	i	1
CCCNC(=O)c1ccc2c(=O)n3c(-c4ccc(C)cc4)csc3nc2c1	.	76	.	.	.	i	0.69
CC1(C)CC(=O)C(C2C3=C(CC(C)(C)CC3=O)Oc3ccccc32)C(=O)C1 (stereo unspecified)	.	104	.	.	.	i	0.93
Cc1cc(/C(=N/O)C(C)(C)NO)ccc1Cl	-1.9	102	.	.	-2	i	0.99
CC(=O)n1c2c(c3ccccc31)OC(N)=C(C#N)C2c1ccc(C(C)C)cc1 (stereo unspecified)	-1.4	105	10	133	-7	i	0.85
Cc1ccc2cc(C)c3nnc(SCC(=O)Nc4nc5c(s4)CCCC5)n3c2c1	-1.6	103	15	57	-1	i	0.82
O=C(Nc1ccncc1)c1cccc2ccccc12	.	95	.	.	.	i	0.96
Cc1ccc(-n2c(C)cc(C(=O)COC(=O)c3c(C)noc3C)c2C)cc1	-1.9	100	29	103	-5	i	1.3
CN(Cc1ccccc1)c1cc(Cl)nc(N)n1	.	102	.	.	-3	i	1
CCCCOc1ccc(C(=O)OC2CC(C)N(C)CC2C)cc1 (stereo unspecified)	-0.3	91	52	72	-6	i	0.98
O=C(O)CCc1ccc(-c2cccs2)n1CC1CCCO1 (stereo unspecified)	-1.7	101	-133	146	-9	i	0.91
COc1cccc2cc(-c3cn4cccc(C)c4n3)c(=O)oc12	-2.5	.	-256	59	-5	i	0.86
CSc1c[n+]2c(n1C)CCC2	-2.0	108	-6	99	4	i	0.98
O=C(Nc1cnc2ccccn2c1=O)c1ccc(Cl)cc1Cl	.	103	-42	109	-5	i	0.97
CC1CCN(S(=O)(=O)N2CCC(C(=O)NCc3ccc4c(c3)OCO4)CC2)CC1	-2.5	72	-56	49	-14	i	1
Cc1onc(-c2ccccc2)c1C(=O)NNC(=S)NC(=O)/C=C/c1cccs1	-2.4	101	.	.	-9	i	1
Cc1cc(C=O)c(C)n1-c1sc2c(c1C(=O)O)CCCC2	-1.8	109	-11	104	-8	i	0.87
CCCCCC(=O)NC(=S)Nc1cccc(-c2nc3ncccc3o2)c1	.	103	.	.	.	i	1.1
CNC(=O)c1sc(N2N=C3/C(=C/c4ccccc4)CCCC3C2c2ccccc2)nc1C (stereo unspecified)	-3.7	96	13	100	4	i	0.68
Cc1ccc(N2CCN(S(=O)(=O)c3ccc(F)c(C)c3)CC2)c(C)c1	-2.8	99	11	196	0	i	0.98
COC(=O)c1ccc(S(=O)(=O)N2CCCN(Cc3ccccc3)CC2)n1C	.	111	.	.	.	i	0.84
O=c1c2ccccc2n(CC(O)CN2CCCCC2)c2ccccc12 (stereo unspecified)	.	98	.	.	.	i	0.84
CCCC(=O)Nc1cc(OC)c(OC)cc1C(=O)O	0.0	98	3	70	-9	i	1
CC1(C)Cc2nc(NCCCO)c(C#N)cc2CO1	-2.3	103	0	148	-16	i	0.98
CSc1snc(SCC(N)=O)c1C#N	-1.4	104	0	60	2	i	0.98
Cc1cc(Nc2ccccc2F)n2ncnc2n1	-0.3	107	57	141	-8	i	1.2
O=C(Nc1ccc(Cl)cc1-c1nc2ccccc2s1)c1ccco1	-0.6	102	3	125	-4	i	1.1
CP(C)(=O)CCP(=O)(c1ccccc1)c1ccccc1	-1.2	109	53	131	11	i	1
COc1cccc(NC(=O)C(=O)N2CCOCC2)c1	-1.7	79	-186	81	-3	i	0.94
O=C(CSc1ncnc2ccccc12)NCc1ccco1	-0.9	101	8	161	-6	i	0.87
C[C@H](NC(=O)c1ccccc1Cl)C(=O)OCCOc1cccc(Cl)c1	.	107	-67	93	-4	i	0.99
CCCC(=O)Nc1ccc2c(c1)COC2=O	.	103	.	.	-13	i	1
CC(=O)N1CCN(c2ccc(S(=O)(=O)NCCN(C(C)C)C(C)C)cc2[N+](=O)[O-])CC1	-1.2	99	-69	98	7	i	1
COc1cccc(C(=O)OCC(=O)Nc2cc(C)c(C)cc2[N+](=O)[O-])c1	-1.6	111	.	.	-6	i	0.92
O=S(=O)(NCc1ccc(Cl)cc1)c1ccc(Cl)nc1	-1.7	93	-4	95	6	i	0.9
COc1ccccc1N(CC(=O)Nc1ccccc1C(=O)NC(C)C)S(C)(=O)=O	-1.4	104	-45	34	6	i	0.95
CNc1ccc([N+](=O)[O-])cc1-c1nc2ccccc2[nH]c1=O	.	100	.	.	.	i	0.82
CCOC(=O)c1ccccc1NC(=O)CSc1nccn1C	-0.6	87	-92	109	7	i	0.95
Cc1c(OCC(F)(F)F)ccnc1CSc1nc2ccccc2[nH]1	-0.4	103	27	70	-2	i	0.66
O=C(Cn1cnc2ccccc21)Nc1ccc(C(=O)O)cc1	-1.0	103	13	52	-11	i	0.86
COc1cc2ccccc2cc1C(=O)NC(=S)Nc1nnn(C)n1	-0.6	82	0	66	3	i	0.88
O=C1NC(=Nc2cccc(Cl)c2)SC1Cc1cccc(Cl)c1Cl (stereo unspecified)	-2.0	88	.	.	-5	i	0.95
O=C(O)c1ccc2c(=O)n3c(nc2c1)/C(=C/c1cccc(Cl)c1Cl)CCCC3	-0.1	97	-19	97	-4	i	1
COc1ccc2c(=O)c(-c3ccccc3)coc2c1	.	101	.	.	-2	i	0.94
Cc1onc(-c2c(Cl)cccc2Cl)c1C(=O)N1CCc2ccccc21	-0.3	97	-33	86	-4	i	0.98
NC(=O)C1(c2ccccc2)CCC(=O)N1c1ccccc1 (stereo unspecified)	.	97	.	.	.	i	0.89
COc1ccc(-c2oc(/N=C/N3CCCC3)c(C#N)c2-c2ccc(OC)cc2)cc1	-0.1	88	-37	81	-3	i	0.94
Cc1ccc(S(=O)(=O)N(CC(=O)Nc2ccc(Cl)c([N+](=O)[O-])c2)C2CCCCC2)cc1	-1.8	99	.	.	10	i	0.91
C/C(Cl)=C/CSc1nnc2n(N)c(=O)c3ccccc3n12	-1.2	83	22	96	3	i	0.87
CS(=O)(=O)N1CCc2cc(S(=O)(=O)N3CCN(Cc4ccc5c(c4)OCO5)CC3)ccc21	-2.2	101	38	168	-7	i	1.1

Rewritten with values under each structure: entries from further up
Order of values – GALR2 ag, RGS16-Gao, Insulin prom inh, Insulin prom inh cell count, PKD1 inh, HSV augment, HSV augment primary fold
CCCC(=O)Nc1ccc2c(c1)COC2=O
→ ., 103, ., ., -13, i, 1
CC(=O)N1CCN(c2ccc(S(=O)(=O)NCCN(C(C)C)C(C)C)cc2[N+](=O)[O-])CC1
→ -1.2, 99, -69, 98, 7, i, 1
COc1cccc(C(=O)OCC(=O)Nc2cc(C)c(C)cc2[N+](=O)[O-])c1
→ -1.6, 111, ., ., -6, i, 0.92
O=S(=O)(NCc1ccc(Cl)cc1)c1ccc(Cl)nc1
→ -1.7, 93, -4, 95, 6, i, 0.9
COc1ccccc1N(CC(=O)Nc1ccccc1C(=O)NC(C)C)S(C)(=O)=O
→ -1.4, 104, -45, 34, 6, i, 0.95
CNc1ccc([N+](=O)[O-])cc1-c1nc2ccccc2[nH]c1=O
→ ., 100, ., ., ., i, 0.82
CCOC(=O)c1ccccc1NC(=O)CSc1nccn1C
→ -0.6, 87, -92, 109, 7, i, 0.95
Cc1c(OCC(F)(F)F)ccnc1CSc1nc2ccccc2[nH]1
→ -0.4, 103, 27, 70, -2, i, 0.66
O=C(Cn1cnc2ccccc21)Nc1ccc(C(=O)O)cc1
→ -1.0, 103, 13, 52, -11, i, 0.86
COc1cc2ccccc2cc1C(=O)NC(=S)Nc1nnn(C)n1
→ -0.6, 82, 0, 66, 3, i, 0.88
O=C1NC(=Nc2cccc(Cl)c2)SC1Cc1cccc(Cl)c1Cl (stereo unspecified)
→ -2.0, 88, ., ., -5, i, 0.95
O=C(O)c1ccc2c(=O)n3c(nc2c1)/C(=C/c1cccc(Cl)c1Cl)CCCC3
→ -0.1, 97, -19, 97, -4, i, 1
COc1ccc2c(=O)c(-c3ccccc3)coc2c1
→ ., 101, ., ., -2, i, 0.94
Cc1onc(-c2c(Cl)cccc2Cl)c1C(=O)N1CCc2ccccc21
→ -0.3, 97, -33, 86, -4, i, 0.98
NC(=O)C1(c2ccccc2)CCC(=O)N1c1ccccc1 (stereo unspecified)
→ ., 97, ., ., ., i, 0.89
COc1ccc(-c2oc(/N=C/N3CCCC3)c(C#N)c2-c2ccc(OC)cc2)cc1
→ -0.1, 88, -37, 81, -3, i, 0.94

Further entries follow.
SMILES	GALR2 ag	RGS16-Gao	Insulin prom inh	Insulin prom inh cell count	PKD1 inh	HSV augment	HSV augment primary fold
Cc1cccc(NC(=O)Cn2cc([N+](=O)[O-])cn2)n1	.	104	0	96	-6	i	0.93
Cc1ccc(SCCNC(=O)c2ccc(C)c(S(=O)(=O)Nc3cccc(C)c3)c2)cc1	-1.9	38	-21	97	-8	i	0.75
CCOC(=O)c1cc2c(n(-c3ccc(Cl)cc3)c1=O)CCCC2=O	.	101	.	.	-7	i	0.9
CC(C)(C)C(=O)Cn1c(=N)n(Cc2ccccc2Cl)c2ccccc21	-0.3	107	-3	124	4	i	0.99
NC(N)=N/N=C/c1ccc(Br)cc1	.	100	-54	72	1	i	0.57
O=C(Nc1ncnc2sc3c(c12)CCCC3)c1ccncc1	.	103	-25	108	10	i	0.93
Cc1ccccc1NC(=O)c1nc[nH]c1C(=O)NCc1ccccc1	-0.7	122	-212	55	-13	i	0.91
CCN1CCN(c2cc(=O)n(Cc3ccc(F)cc3)c(=O)[nH]2)CC1	.	103	78*	73*	4	i	1.1
Cc1cc(C)cc(OCC(=O)NNC(=O)CN2C(=O)c3ccccc3C2=O)c1	-1.9	106	.	.	-7	i	1
COc1ccc(NC(=O)c2ccc(C)cc2Cl)c([N+](=O)[O-])c1	-2.0	98	14	140	-8	i	0.93
Cn1c(=O)c2c(-c3cccc(Br)c3)c(C#N)c(N)nc2n(C)c1=O	.	97	.	.	.	i	1.1
Cc1ccc(CC(=O)N2CCOCC2)cc1	-2.3	111	-11	108	2	i	1
Cc1ccc(C(=O)Nc2ncc3c(n2)CC(c2ccco2)CC3=O)cc1 (stereo unspecified)	-0.3	105	.	.	-8	i	1.3
CCCc1nc2sc3c(=O)n(N)cnc3c2c2c1CCCC2	0.6	106	-22	98	-2	i	0.91
CCc1cc2cc3c(cc2nc1SCC(=O)Nc1nccs1)OCO3	-2.5	94	-2	96	-2	i	1.2
CC(C)COP(=O)(c1ccc(N(C)C)cc1)C(O)c1cccnc1 (stereo unspecified)	.	98	.	.	.	i	0.94
Cc1oc(-c2ccc(-c3ccccc3)cc2)nc1CN1CCN(CC(=O)N(C)C)CC1	.	106	.	.	3	i	0.87
COc1cccc(CN(C)CC(=O)NCc2ccccc2Cl)c1OC	.	92	-375	107	-6	i	1
CCN(CC)c1ccc(N=Cc2ccc([N+](=O)[O-])o2)cc1	-1.2	20*	-30	84	-6	i	0.77
COc1ccc(C(=O)NC2(C(F)(F)F)C(=O)Nc3c2c(=O)[nH]c(=O)n3CCc2ccc(OC)c(OC)c2)cc1 (stereo unspecified)	-1.3	98	8	91	-12	i	0.87
CCOc1ccc(CN2CCN(Cc3cccc4c3OCO4)CC2CCO)cc1 (stereo unspecified)	.	108	.	.	0	i	0.9
COC(=O)c1sccc1NC(=O)Cn1nnc(-c2ccccc2C)n1	.	98	23	92	-1	.	.
CN1CCN(C(=S)c2cn(CCOc3ccccc3F)c3ccccc23)CC1	.	100	.	.	-5	i	0.9
Cc1cccc(NC(=O)CCC(=O)NCCO)c1	-1.8	106	6	106	-8	i	1
O=C(Nc1ccccc1)c1ccc(N2CCN(c3ccccn3)CC2)c(S(=O)(=O)N2CCOCC2)c1	-1.9	100	17	91	-10	i	0.74
